High-throughput results as filed in PubChem.
Menin-MLL FL inh – displaces fluorescein MLL peptide from human menin; Fluorescence polarization, fluorescein-MLL peptide displacement from menin; FP activity change, % at 61.4 µM; 290,000 tested, under 10 active; AID 1766; inconclusive = falling polarisation curve, or a change in total fluorescence; inactive = total fluorescence flat and polarisation flat or rising; no compound was filed as active; the % refers to the polarisation; negative = inhibition;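 note: % of control where 0% means no effect; inhibitors lower the polarisation; unlabelled MLL peptide was the positive control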
TRPML1 blocker – human mucolipin-1 channel inhibition; Q9GZU1; TRPML1-inducible cells, Ca2+ dye fluorescence, FDSS; active compounds read low; inhibition of EC80 agonist-evoked calcium signal; activity change, negative = inhibition, % (test concentration not listed); 0.02% of 390,000 active; AID 624415; in the data active means activity change below about -50%; inconclusive means about -30% to -50%; inactive means above about -30%;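 note: stimulus is agonist 54-4 at its EC80 concentration; % is set by controls: 0 for no effect and ±100 for the full control effect; compound concentration not given in the record; the text of the record puts the active cut at -80%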
Target sequence (Q9GZU1 whole entry, looked up): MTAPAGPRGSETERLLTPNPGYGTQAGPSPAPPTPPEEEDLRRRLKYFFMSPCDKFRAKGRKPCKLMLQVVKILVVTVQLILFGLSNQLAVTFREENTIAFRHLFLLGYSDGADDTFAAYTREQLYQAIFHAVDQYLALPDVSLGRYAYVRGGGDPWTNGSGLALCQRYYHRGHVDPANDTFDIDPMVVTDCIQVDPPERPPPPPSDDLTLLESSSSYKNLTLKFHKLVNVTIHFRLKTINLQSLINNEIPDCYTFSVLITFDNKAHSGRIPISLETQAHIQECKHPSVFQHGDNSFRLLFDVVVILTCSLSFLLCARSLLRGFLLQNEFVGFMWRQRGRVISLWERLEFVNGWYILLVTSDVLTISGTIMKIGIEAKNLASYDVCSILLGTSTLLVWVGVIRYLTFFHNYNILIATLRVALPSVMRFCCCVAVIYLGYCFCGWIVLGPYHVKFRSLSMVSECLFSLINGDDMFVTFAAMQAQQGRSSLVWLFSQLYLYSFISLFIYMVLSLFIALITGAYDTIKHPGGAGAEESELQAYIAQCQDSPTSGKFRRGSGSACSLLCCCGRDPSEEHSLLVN
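Calcium fluorescence in TRPML1-DL cells induced overnight with Tet: a 110 s read after compound pin addition, then a 110 s antagonist read after challenge with 54-4 at 4 uM final (EC80).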
gsp ag – gsp mutant agonism; gsp mutant cells, cAMP HTRF, 30 min; control for the full effect not named in the record; Potency, µM (titrated, usually from 76.9 µM), for inactives: at the highest dose activation (cAMP increase), usual class: activators; 0.13% of 340,000 active; AID 624287; active = well fitted activation curve with a large enough effect; inconclusive = small, poorly fitted or top-dose-only effect, or another doubt; inactive = no such curve, though single readings can be large or run the other way; cell line not stated here;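 note: phosphodiesterase inhibitor Ro 20-1724 added with compounds to block cAMP breakdown; potency is the fitted concentration of half-maximal effect; nearly all actives have a fitted effect of over 60% in size; about a fifth of the inactives were tested at one dose only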
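Cells stably selected in G418 were plated at 2000/well, grown 16-24 hr, then given compounds in DMSO with the PDE inhibitor […] (300 uM solution added) for 30 min at 37C; cAMP was read by HTRF.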
ClpP mod – qHTS Assay for Activators of ClpP; purified B. subtilis ClpP, FRET peptide cleavage, 20 min; Potency, µM (top dose mostly 57.5 µM), for inactives: at the top dose activity change, negative = active; AID 651965, 2013; 1.9% of 340,000 active; active = well fitted falling curve with a large enough effect; inconclusive = small, poorly fitted or top-dose-only effect; inactive = no such curve, though single readings can be large or run the other way; note: potency is the fitted concentration of half-maximal effect; the source files actives as falling curves though it sought activators and does not explain the sign; nearly all actives have a fitted effect of over 65% in size; many hits overshoot -100%
Target sequence (P80244 whole entry, looked up): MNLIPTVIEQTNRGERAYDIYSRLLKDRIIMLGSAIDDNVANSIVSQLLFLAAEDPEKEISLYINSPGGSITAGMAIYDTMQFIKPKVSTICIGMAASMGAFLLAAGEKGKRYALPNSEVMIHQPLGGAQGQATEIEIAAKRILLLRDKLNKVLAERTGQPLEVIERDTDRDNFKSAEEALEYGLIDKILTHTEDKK
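Buffer: 100 mM Tris/HCl pH8, 100 mM KCl, 0.05% low protease BSA, 2.5% glycerol, 0.01% Tween-20. ClpP 10 microg/mL final; 20 min RT; delta FRET normalized to ADEP and DMSO controls.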
Sfp inh – inhibitors of Bacillus subtilis Sfp phosphopantetheinyl transferase | Q9F4F7 | Biochemical Sfp PPTase activity, qHTS | Potency, µM, for the others: max response, negative = inhibition, hits mostly inhibitors | 3.5% of 310,000 active; active = well fitted inhibition curve with a large enough effect; inconclusive = small, poorly fitted or top-dose-only effect, or another doubt; inactive = no such curve, though single readings can be large or run the other way;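 note: the enzyme is Sfp with the accession as filed and its product quenches rhodamine fluorescence; potency is the fitted concentration of half-maximal effect; 0% = enzyme reaction without inhibitor and -100% = no enzyme wells; top concentration of the series not given in the record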
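Fluorescence-quenching assay: 15 nM Sfp-PPTase preincubated 15 min at room temperature with compound, then 5 uM rhodamine-CoA and 12.5 uM BHQ-2-labelled YbbR peptide added. Fluorescence (ex 525/em 598 nm) read at start and after 30 min; difference gives rate.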
TRPV1 PAM – human TRPV1 potentiation; AID 540277; Q8NER1; TRPV1-expressing cells, Fluo-8 calcium influx, capsaicin EC20 potentiation; host cell line not named in the record; control for the full effect not named in the record; potentiation, % at 8.33 µM; 0.02% of 320,000 active; active means potentiation above 80%; inconclusive means 30% to 80%; inactive means below 30%; note: 0% is about no effect
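Fluo-8 calcium influx in TRPV1-expressing cells, kinetic read (ex 480/em 520 nm). Compound added and read 3 min for agonist activity, followed by capsaicin at EC20 final and 2 min further read for enhancement.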
gsp antagonist – antagonists of gsp mutant (McCune-Albright syndrome) | Potency, µM (highest dose often 76.9 µM), inactives show at the highest dose activity change, negative = inhibition, hits mostly inhibitors | AID 624288 | gsp-mutant cells, cAMP HTRF, 30 min; control for the full effect not named in the record | 0.4% of 340,000 active; active = falling curve of any shape with a large fitted effect; inconclusive = falling curve, mostly with a smaller effect; inactive = flat or rising curve; cell line not stated here;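 note: intracellular cAMP measured with PDE inhibitor Ro 20-1724 present during compound exposure; potency is the fitted concentration of half-maximal effect; % is set by controls: 0 for no effect and ±100 for the full control effect; nearly all actives have a fitted effect of over 65% in size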
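Measurement of cellular cAMP by homogeneous time-resolved fluorescence following a 30 min compound exposure at 37C. The PDE inhibitor […] was present throughout; the assay buffer was DPBS with 0.05% BSA and 0.005% Tween 20.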
The depositor's hits bear a star; u = inconclusive; x = no result given; & = joins results of further samples; [ ] = remark or other dose. This is a random part of the collection; 4.9% or so of the library scored in one or more.

SMILES	Menin-MLL FL inh	TRPML1 blocker	gsp ag	ClpP mod	Sfp inh	TRPV1 PAM	gsp antagonist
CC12CCC(=O)N1C(C(=O)NNC(=O)COc1ccccc1Cl)CS2 (configuration not stated)	x	36	-11%	-0.2%	x	4	11%
CS(=O)(=O)N(CC(=O)NCC1CCCO1)c1cccc([N+](=O)[O-])c1 (configuration not stated)	-1.6	7	-7%[15.4 µM]	x	19%	-2	x
COc1ccc(CCNC(=O)C2CCCN(c3nc(C)cc(C)n3)C2)cc1 (configuration not stated)	0.4	-21	14%[15.4 µM]	x	2%	-11	0%
CCc1ccc(/C=C/C(=O)C2C(=O)c3ccccc3C2=O)cc1	2.2	-2	5%	1.7%	79µM*	6	-24%
O=C(CSc1nnc(-c2cccnc2)n1Cc1ccco1)Nc1nc(-c2ccc(F)cc2)cs1	4.7	1	-51%[inhibitor]	-1.7%	-29%	18	u
C[C@H](CO)N1C[C@H](C)[C@@H](CN(C)Cc2ccc(C(=O)O)cc2)Oc2c(NC(=O)c3ccncc3)cccc2C1=O	x	-11	x	-5.0%	x	x	2%
CCN1C(=O)N[C@@H](c2cccs2)C(C(C)=O)=C1C	-2.0[11.7 µM]	4	0%	-0.8%	9%&8%	25	15%
CCCc1nc2ccccc2c(=O)n1/N=C/c1c(C)[nH]n(-c2ccc(C)cc2)c1=O	-1.3	-1	-4%	-1.1%	12%	5	-7%
CC1(C)C(=O)N(CCN2CCC(C(=O)c3ccc(F)cc3)CC2)c2ccccc21	6.9	-4	x	1.0%	x	-16	u
COc1ccccc1/C=C/C(=O)OCC(=O)NCCC1=CCCCC1	1.6	10	4%[15.4 µM]	-0.7%	-22%	17	8%
O=C(COC(=O)C1CCC1)NCc1ccc(F)cc1	x	2	8%[15.4 µM]	-0.9%	x	-4	11%
Cc1cc(C)cc(-n2c(SC(C)C(=O)NCc3ccc4c(c3)OCO4)nc3ccccc3c2=O)c1 (configuration not stated)	1.3	11	2%	-22%	10%	-5	-30%
Cc1ccc(-n2ncc3c2CC(C)(C)CC3NC(=O)CCc2ccncc2)cc1 (configuration not stated)	-1.9	-6	7%	-2.6%	7%	-13	-6%
COc1ccc(NC(=S)N(CCc2c(C)[nH]c3ccccc23)Cc2cccnc2)cc1	4.8	-9	-41%[inhibitor]	-4.8%	2%	7	u
O=C(NC1CCOCC1)C1CCC(=O)N(Cc2ccc(Cl)cc2)C1 (configuration not stated)	x	3	-4%[15.4 µM]	-2.0%	-4%	-5	-15%
COc1ccc2[nH]cc(CCNC(=S)NCCc3ccccc3)c2c1	-1.2	-13	20%	-0.4%	26%	-9	-7%
COc1cc(C(=O)NC2Cc3ccccc3C2)ccc1OC1CCN(C(C)=O)CC1	x	4	-10%[15.4 µM]	x	2%	-5	-2%
O=C(CSc1ccccc1)Nc1ccc(C(=O)Nc2ccc(O)cc2)cc1	9.1	29	21%	x	u	-3	8%
Cc1ccc(NC(=O)COc2cccc(/C=C3\SC(=S)N(CCC(=O)O)C3=O)c2)cc1Cl	4.2	x	-57%[inhibitor]	0.1%	-19%	-2	-31%
Clc1cc2c(c(Cn3cnc4ccccc43)c1)OCOC2	-1.1	9	15%	-0.3%	19%	6	-2%
O=[N+]([O-])c1cc(C(F)(F)F)cc([N+](=O)[O-])c1NCCN1CCNCC1	-3.7	5	-28%	2.3%	12%	u	5%
O=C(COn1nnc2ccccc21)N1CCN(Cc2ccccc2)CC1	2.6	6	-33%[inhibitor]	1.2%	17%	-9	7%
C#CCN(C[C@@H]1[C@@H](OC(=O)NCc2ccc(OC)c(OC)c2)[C@@H](OC(=O)NCc2ccc(OC)c(OC)c2)Cn2c(=O)n(CCCCCC)c(=O)n21)S(=O)(=O)c1ccc(C)cc1	x	13	-61%[inhibitor]	-1.9%	x	x	x
Cc1ccc2c(c1)P(=O)(O)c1cc(C)ccc1O2	x	38	12%	-0.8%	x	x	0%
Cn1c(-c2cc3ccccc3oc2=O)nc2ccccc21	-1.0	-7	12%	-7.5%	5%	1	-4%
S=C(Nc1ccccn1)Nc1ccccc1Cl	-3.0	11	-6%[15.4 µM]	0.6%	-7%	7	1%
COc1ccccc1-n1c(-c2cn(C)nc2C)n[nH]c1=S	1.2	22	-1%	2.7%	56µM*	-18	12%
NC(=O)c1nn(-c2ccc(Cl)cc2Cl)c(=O)cc1O	0.7	21	10%[15.4 µM]	x	15%	-1	8%
CC(=O)c1ccc(Nc2c3c(nc4ccccc24)CCCC3)cc1	2.3	9	-12%	-18%	-4%	-13	0%
CN(CC(=O)Nc1ccc(N2CCOCC2)cc1)C(=O)CCNC(=O)c1ccc(Br)cc1	x	11	-5%[15.4 µM]	2.0%	x	u	-8%

Two compounds drawn at random from the list so far, as already listed:
SMILES	Menin-MLL FL inh	TRPML1 blocker	gsp ag	ClpP mod	Sfp inh	TRPV1 PAM	gsp antagonist
COc1ccccc1-n1c(-c2cn(C)nc2C)n[nH]c1=S	1.2	22	-1%	2.7%	56µM*	-18	12%
CN(CC(=O)Nc1ccc(N2CCOCC2)cc1)C(=O)CCNC(=O)c1ccc(Br)cc1	x	11	-5%[15.4 µM]	2.0%	x	u	-8%

More records:
SMILES	Menin-MLL FL inh	TRPML1 blocker	gsp ag	ClpP mod	Sfp inh	TRPV1 PAM	gsp antagonist
CN1CCCN(S(=O)(=O)c2cccc(C(F)(F)F)c2)c2nc3ccccc3nc21	x	0	3%	u	x	23	-9%
O=C(NCc1cccnc1)C1CCCN(S(=O)(=O)c2cccc3nsnc23)C1 (configuration not stated)	2.2	-3	26%	-1.4%	5%	3	-2%
COCCCNC(=S)N1CCC(C(=O)c2ccc3c(c2)OCCO3)CC1	-1.1	5	-15%	-15%	13%	-3	-11%
O=C(COC(=O)C1CCN(S(=O)(=O)c2cccs2)CC1)Nc1ccc(F)cc1F	5.7	3	-2%[15.4 µM]	x	14%	-10	-12%
O=C(N/N=C1\CCCc2ccccc21)c1cccc([N+](=O)[O-])c1	0.2	-3	-12%	1.1%	8%	-16	5%
CC(C)Oc1ccc(C(=O)Nc2ccc([N+](=O)[O-])cc2)cc1	-2.1	8	9%	0.2%	17%	-1	6%
CCOC(=O)C1(CCCc2ccccc2)CCN(C(=O)c2cnc(C)cn2)CC1	-0.3	6	4%	x	-13%	-24	-19%
CC(=O)Nc1ccccc1OCC(=O)NCCC1=CCCCC1	-1.5	55	28%	x	13%	-1	8%
CC[C@H](C)[C@H](NC(N)=O)C(=O)Nc1ccc(C)cc1	2.0	3	-15%	-2.2%	8%	-12	8%
Cc1nn(C)c2ncc(C(N)=O)c(Oc3ccc(Cl)cc3)c12	-2.0	10	-2%[15.4 µM]	-1.8%	0%	26	-2%
Cc1ccnc(SCC(=O)N2CCN(c3ccccc3)CC2)n1	0.2	-4	9%	-1.7%	9%	20	5%
O=C(C1CC1)N1CCN(c2ccc(F)cc2)CC1	-0.6	-1	3%[15.4 µM]	0.7%	8%	-12	-5%
CCc1ccc(NC(=O)CNC(=O)c2cn(-c3ccccc3OC)c(=O)c3ccccc23)cc1	-1.6	18	-5%	-21%	-8%	-3	2%
CCOc1ccc(/C=N/n2c(C3CCCCC3)n[nH]c2=S)cc1	-3.7	x	u	0.0%	u	13	-7%
O=C(Cn1ccc(=O)[nH]c1=O)NCCO	-6.0	-7	-4%[15.4 µM]	x	18%	-3	-23%
CC(=O)c1c(C)[nH]c(C(=O)Nc2cccc(S(=O)(=O)N3CCCCC3)c2)c1C	x	-6	3%	-0.4%	x	2	u
COc1cc(C2=NOC(C(=O)Nc3cccnc3)C2)cc(OC)c1OC (configuration not stated)	-0.6	9	14%[15.4 µM]	x	11%	-9	-2%
COc1cc(C(O)P(=O)(OCC(C)C)OCC(C)C)cc(OC)c1OC (configuration not stated)	4.0	-8	-2%	-2.2%	7%	14	0%
O=C(O)c1ccc(Nc2nc3ccccc3nc2NS(=O)(=O)c2cccs2)cc1	-4.4	10	-1%	u	28%	4	1%
CC(=O)Nc1cccc(OCCCNC(=O)c2ccc(F)cc2)c1	5.4	-11	26%	0.0%	-1%	-22	7%
Cc1ccc(-c2nnc(COc3cccc(-n4cnnn4)c3)o2)cc1	0.4	-4	-6%	4.9%	8%	-9	-5%
COC(=O)c1ccccc1NC(=O)C/C(C)=N/NC(=O)CC#N	u	2	4%[15.4 µM]	x	13%	-2	6%
Cc1cc(C)cc(OCC(=O)Nc2ccc3c(c2)OCCO3)c1	-0.1	26	9%	0.1%	11%	-5	-9%
O=C(/C=C/c1ccccc1)N1c2ccccc2Sc2ccc(C(F)(F)F)cc21	-0.1	29	u	-2.7%	-16%	3	-3%
CCOC(=O)C1=C(C)N=C2SC(CC)C(=O)N2C1c1cccc(F)c1 (configuration not stated)	-1.7	-2	14%	0.9%	8%	-2	-1%
O=C(OCc1ccccc1)C1CCCN1C(=O)c1ccccc1[N+](=O)[O-] (configuration not stated)	1.4	-4	-2%	0.0%	17%	u	-9%
CCNS(=O)(=O)c1ccc(CCC(=O)NCc2cccnc2)cc1	-1.9	x	0%	-0.6%	14%	-6	9%
COc1ccc2[nH]c3nc(SCC(=O)Nc4ccc5c(c4)OCO5)nnc3c2c1	-0.2	28	-31%	1.0%	8%	-6	4%
CCc1c(C)nc2ncnn2c1Nc1ccc(C#N)c(Cl)c1	-1.3	21	u	0.5%	-7%	-2	-19%
CC1CCN(C(=S)NC(=O)c2ccc(F)cc2)CC1	x	8	-6%	-9.3%	x	x	1%
COc1cccc(C(=O)OC2CCCN(C)C2)c1 (configuration not stated)	-0.3	26	-7%	-2.3%	-1%	-7	5%
COc1ccc(C2=NOC(C)(c3nnc(Cc4ccccc4)o3)C2)cc1 (configuration not stated)	x	21	x	-2.4%	x	x	6%
O=C(NCCc1ccccc1)c1nc2ncccn2n1	-1.5	-12	13%	-0.4%	7%	2	-2%
O=C(O)CCCCCN1C(=O)/C(=C\c2ccc(-c3ccc(Cl)cc3)o2)SC1=S	u	21	-4%[15.4 µM]	x	6.3µM*	21	4%
OC(COCC1COc2ccccc2O1)CN1CCc2ccccc2C1 (configuration not stated)	-5.4	-2	-28%	2.0%	-19%	6	6%
CCN1CCC(O)(/C=C/c2ccc(C)cc2)C(C(=O)/C=C/c2ccc(C)cc2)C1 (configuration not stated)	x	7	0%	1.3%	x	x	6%
